# Screening data deposited in PubChem BioAssay by National Center for Advancing Translational Sciences (NCATS).
# VDR inhibitor = blocks the human vitamin D receptor; VDR-SRC2-3 peptide fluorescence polarization, 2 h; Potency, µM, inactives show max response, negative = inhibition, actives largely listed as inhibitors; 400,000 tested, 0.93% active; active = well fitted inhibition curve with a large enough effect; inconclusive = small, poorly fitted or top-dose-only effect, or another doubt; inactive = no such curve, though single readings can be large or run the other way; note: series mostly up to about 120 µM
# Target sequence (P11473 whole entry, looked up): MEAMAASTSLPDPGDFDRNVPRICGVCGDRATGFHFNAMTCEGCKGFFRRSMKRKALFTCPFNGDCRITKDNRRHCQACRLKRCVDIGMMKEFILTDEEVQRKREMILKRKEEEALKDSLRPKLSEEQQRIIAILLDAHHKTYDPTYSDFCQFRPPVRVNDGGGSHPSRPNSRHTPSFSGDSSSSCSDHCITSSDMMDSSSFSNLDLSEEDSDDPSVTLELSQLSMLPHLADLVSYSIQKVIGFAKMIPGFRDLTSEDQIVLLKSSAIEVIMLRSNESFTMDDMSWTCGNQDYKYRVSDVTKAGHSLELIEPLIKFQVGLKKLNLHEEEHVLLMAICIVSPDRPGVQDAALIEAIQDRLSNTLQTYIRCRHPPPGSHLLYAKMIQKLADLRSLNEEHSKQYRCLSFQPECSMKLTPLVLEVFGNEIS
#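 Compounds are added to VDR with labelled SRC2-3 coactivator peptide and held 2 h at room temperature. Inhibition of the VDR–peptide interaction is then read as a change in fluorescence polarization.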
# * marks the source's active call; other numbers are inactive results; ? = inconclusive; & = joins results of further samples; [ ] = dose if it differs, or a comment. % is set by controls: 0 for no effect and ±100 for the full control effect; potency is the fitted concentration of half-maximal effect. Only part of the results is shown, so the mix of outcomes need not match the whole.
# The opening 3 records, to show the layout:
SMILES,VDR inhibitor
O=C(Nc1cccc(S(=O)(=O)NC2=NCCC2)c1)c1cc(-c2ccccn2)nc2ccccc12,-2%
CC1(C)Cc2ccccc2-c2nc(CN3CCOCC3)[nH]c(=O)c21,0%
CCOC(=O)C1=C(C)N=c2s/c(=C/c3ccco3)c(=O)n2C1c1cccc(OC)c1 (centres undefined),16%

# The listing, from the first entry:
SMILES,VDR inhibitor
O=C(Nc1cccc(S(=O)(=O)NC2=NCCC2)c1)c1cc(-c2ccccn2)nc2ccccc12,-2%
CC1(C)Cc2ccccc2-c2nc(CN3CCOCC3)[nH]c(=O)c21,0%
CCOC(=O)C1=C(C)N=c2s/c(=C/c3ccco3)c(=O)n2C1c1cccc(OC)c1 (centres undefined),16%
O=C(NCc1ccc2c(c1)OCO2)c1ccc(Br)cc1,-14%
Cc1cccc(C(=O)NCC(=O)OCc2nnc(-c3ccccc3)o2)c1,-1%
COc1ccccc1NC(=O)C1CCN(S(=O)(=O)c2ccc3c(c2)oc(=O)n3C)CC1,8%
CCn1cc(CN(C)C(=O)CSc2nc(-c3ccco3)cc(C(F)(F)F)n2)c(C)n1,26%
O=C(C1COc2ccccc2O1)N1CCc2ccccc2C1 (centres undefined),10%
COCCn1c(-c2ccc(Cl)cc2)nc2oc3cc(OC)ccc3c(=O)c2c1=O,-11%
COc1ccc(C2c3ccc(O)cc3Oc3ncn(CCN4CCOCC4)c(=N)c32)cc1OC (centres undefined),-2%
CC(C)CC(c1nnnn1C(C)C)N1CCN(c2cccc(Cl)c2)CC1 (centres undefined),-10%
CCN1C(=O)[C@H]2[C@@H](c3ccc(-c4ccc(Cl)c(Cl)c4)cc3)N[C@@](C)(C(=O)OC)[C@H]2C1=O,-16%
CCN(Cc1ccccc1)C(=O)c1nc(-c2cccc(F)c2)n2c1CCCCC2,-2%
N#Cc1ccc(C(=O)Nc2nnc(-c3cccs3)o2)cc1,?
COCC(C)n1c(C)cc(C(=O)COC(=O)c2oc3ccccc3c2C)c1C (centres undefined),-1%
CC(C)[C@H](NC(=O)CCn1nnc2ccccc2c1=O)C(=O)O,-11%
CCOC(=O)Cc1sc(N)nc1C,5%
COc1ccc(-c2noc(CN(C(=O)C(C)(C)C)C(C)C)n2)cc1,-3%
CN1CCc2cc3c(c4c2[C@H]1[C@H](O)c1ccccc1-4)OCO3,6%
CC1C(=O)C(C)C(c2ccc(Cl)cc2)NC1c1ccc(Cl)cc1 (centres undefined),1%
N#C/C(=C\Nc1ccccc1SC(F)(F)F)c1nc(-c2ccc(F)cc2)cs1,17%
COc1ccc(C)cc1NC(=O)NC1CCN(Cc2ccccc2)CC1,-4%
Cc1ccsc1C1C=C(c2cccc(Br)c2)Nc2ncnn21 (centres undefined),-5%
COc1ccccc1NS(=O)(=O)c1ccc(C)c(C(=O)NCC2(N(C)C)CCCCC2)c1,4%
CCN(CC)C(=O)[C@H]1C[C@H](CC(=O)NCc2ccco2)C(=O)N2CCc3c([nH]c4cc(CCC(=O)N(C)C)ccc34)[C@]12C,0%
Cc1cc(C(=O)Cn2nc(C(=O)O)c3ccccc3c2=O)c(C)n1CC(F)(F)F,1%
CCCC[C@@H]1C=C(C(=O)O)[C@H](c2ccc(CC)cc2)N1S(=O)(=O)c1ccc(C)cc1,-12%
O=C(CN1CC(c2ccccc2)CC1=O)N/N=C/c1cc(Br)ccc1O (centres undefined),1%
CSc1ncc(C(=O)Nc2ccc(C(C)=O)cc2)c(C)n1,41%[activator]
Cc1cnn(-c2cc(N/N=C/c3ccccc3F)ncn2)c1,13%
O=C(O)c1ccc(NC(=O)C2(c3ccccc3)CCCC2)cc1,4%
COc1ccc(NC(=O)Cn2c(=O)oc3cc(S(=O)(=O)NC(C)C)ccc32)cc1OC,7%
CCN(CC)S(=O)(=O)c1ccc(NC(=O)c2ccc(OCC3CCCO3)cc2)cc1 (centres undefined),9%
COCCSc1ccccc1C(=O)Nc1nccs1,6%
Cc1ccc(-c2csc(N3CCN(c4cc5c(cc4Cl)nc(C)n5CCN4CCCCC4)CC3)n2)cc1,-22%
CCOc1cc(NC(=S)NCC(C)C)c(OCC)cc1NC(=O)c1cccs1,16%
O=[N+]([O-])c1ccc(N2CCN(S(=O)(=O)c3ccccc3[N+](=O)[O-])CC2)cc1NCc1cccnc1,-1%
Cc1ccc2nc(-c3ccc(NS(C)(=O)=O)cc3)cc(-c3ccccc3)c2c1,1%
Cc1ccc(-c2nnc(NC(=O)CCS(=O)(=O)c3ccccc3)o2)c(C)c1,-14%
CC1CC[C@@]2(C(=O)O)CC[C@]3(C)C(=CCC4[C@@]5(C)CCC(O)C(C)(C)C5CC[C@@]43C)C2C1C (some centres undefined),-2%
CC(=O)Oc1cccc2c1C(=O)c1c(OC(C)=O)cc(C(=O)O)cc1C2=O,?
Cc1ccc(Cn2cnc3c(cnn3C(C)(C)C)c2=O)cc1,-5%
O=C(CN1c2cccc3cccc(c23)S1(=O)=O)NCCc1ccc(F)cc1,-6%
O=C(NCc1ccc2c(c1)OCO2)C1CCN(c2nccc(C(F)(F)F)n2)CC1,12%
Cc1ccc(C)n1-c1ccc(C(=O)NN=C2CCCC2)cc1,19%
COc1cc(NC(=O)Cc2ccccc2OC)cc(OC)c1,1%
COc1ccc(/C=C2/SC(=O)N(CCCCCC(=O)Nc3ccccc3C(=O)O)C2=S)cc1,?
CCCOc1ccc(C(=O)Nc2c[nH]c(=O)[nH]c2=O)cc1,-22%
CCOc1ccc(CCNC(=O)C2CCN(S(=O)(=O)N3CCCCC3)CC2)cc1OCC,-4%
COc1cc(/C=N/NC(=O)Cc2ccccc2)cc(OC)c1OC,-1%
COc1cc(NC(=O)c2c(-c3ccccc3Cl)noc2C)c2ncccc2c1,-3%
CCc1nc(SCC(=O)c2cccc([N+](=O)[O-])c2)n[nH]1,50µM*
Cc1cc(C)c(C#N)c(Oc2ccc(O)cc2)n1,-16%
CCOC(=O)c1c(NC(=O)CSc2cn(CCNC(=O)c3ccccc3F)c3ccccc23)sc2c1CCCC2,14%
CC1=CC(C)(C)N(C(=O)CSc2nnc(-c3ccccc3)o2)c2ccc(C)cc21,-9%
O=C(CNS(=O)(=O)c1ccc(Br)s1)NCc1ccc2c(c1)OCO2,8%
CCn1c(CNC(=O)c2ccc(OC)cc2)nnc1SCC(=O)Nc1cccc(C)c1,-10%
COc1cc2nc(C3CCC3)n(NC(=O)C3CCC3)c(=O)c2cc1OC,-13%
CCCCn1c(N)c(N(Cc2ccccc2OC)C(=O)COc2ccc(C)cc2)c(=O)[nH]c1=O,-7%
COCc1cccc(NC(=O)Cc2cccc3ccccc23)c1,-22%

# 3 of the entries above in order of their number in VDR inhibitor, largest number first:
SMILES,VDR inhibitor
O=[N+]([O-])c1ccc(N2CCN(S(=O)(=O)c3ccccc3[N+](=O)[O-])CC2)cc1NCc1cccnc1,-1%
CCn1c(CNC(=O)c2ccc(OC)cc2)nnc1SCC(=O)Nc1cccc(C)c1,-10%
O=C(NCc1ccc2c(c1)OCO2)c1ccc(Br)cc1,-14%

# Additional compounds follow:
SMILES,VDR inhibitor
Cc1ccc(NC(=O)C(=O)NCC2(c3ccccc3)CCCC2)cc1C,7%
Cc1cccc2c(SCC(=O)NCC3CCCO3)nc(-c3ccc(F)cc3)nc12 (centres undefined),6%
COc1ccc(S(=O)(=O)NCCc2ccncc2)cc1,9%
COc1ccc2[nH]c(=O)c(CN(CCN3CCCC3)C(=O)Nc3ccccc3Cl)cc2c1,0%
O=S(=O)(c1cccs1)N1CCN(c2ccc(Cl)cc2)CC1,-4%&-11%
Cc1cc2oc(=O)cc(CN3CCCCC3)c2cc1O,-2%
CCn1c(C)nc2cc(C(=O)NNC(=S)Nc3ccccc3)ccc21,7%
O=C(N/N=C/c1sc2ccccc2c1O)c1cccc2ccccc12,?
COc1ccc(/C=C/C(=O)NC(=S)Nc2ccc(S(=O)(=O)Nc3cc(C)on3)cc2)cc1,-17%
COc1ccc(C)cc1NC(=O)C1CCCN(S(=O)(=O)c2ccc3[nH]c(=O)ccc3c2)C1 (centres undefined),-11%&9%
Cc1ccc(S(=O)(=O)N2CCCN(C(C)c3nc4ccccc4c(=O)[nH]3)CC2)cc1 (centres undefined),9%
NS(=O)(=O)c1ccc(NC(=S)N2CCc3ccccc32)cc1,18%
N=c1oc2cc(O)ccc2cc1C(=O)Nc1nc2ccccc2s1,2%
Cc1ccc(OCC(=O)N/N=C/C=C/c2ccco2)c(Br)c1,-26%
COc1ccccc1C(=O)Nc1nnc(SCC(=O)NCC2CCCO2)s1 (centres undefined),2%
O=C(N/N=C/c1cc2ccccc2nc1Cl)/C(=C/c1cccs1)NC(=O)c1ccccc1,5%
COc1ccc(Cn2c(=O)[nH]c3cc(C(=O)N4CCN(c5cccc(Cl)c5)CC4)ccc3c2=O)cc1,-5%
Cc1nn(C)c(C)c1S(=O)(=O)N1CCC(C(=O)Nc2ccc3c(c2)OCCO3)CC1,-19%
Cc1cccc(-c2ncc(CN3CCN(CCC(C)C)C(CCO)C3)cn2)c1 (centres undefined),-1%
COc1ccc2oc(C(=O)NCC(c3ccco3)N(C)C)c(C)c2c1 (centres undefined),-11%
CNC(=O)C1CC(=O)N(c2ccc(OCC(=O)Nc3ccccc3C)cc2)C1 (centres undefined),14%
CC(C)(C)C(=O)Nc1nnc(CC(=O)NCc2ccccc2)s1,24%
CCN(CC)C(=O)c1cn(-c2cccc(OC)c2)c(=O)c2ccccc12,-15%
CCCCCCOC(=O)CCn1[nH]c(=O)c2ccccc2c1=O,21%
CN(C)[C@@H]1CCC[C@H]1OC(=O)C(c1ccccc1)c1ccccc1,?
O=C(Nc1cc(-c2cccc(Cl)c2)nn1-c1ccccc1)c1ccccc1F,14%
Cc1cc(C)n2nc(C(=O)Nc3ccn(Cc4ccccc4C)n3)cc2n1,11%
O=C(COC(=O)c1c(F)cccc1F)Nc1ccccc1OC(F)F,-16%
CC(Sc1nnc(COc2ccc([N+](=O)[O-])cc2)n1-c1ccccc1)C(=O)O (centres undefined),13%
Cn1c(CCC(N)=O)nnc1SCC(=O)Nc1cc(S(=O)(=O)N2CCCC2)ccc1Cl,-19%
CCc1c(C#N)c(SCCC(=O)Nc2ccc(F)cc2)nc2c1C(=O)CC(C)(C)C2,9%
CN(C(=O)c1cc(S(=O)(=O)N2CCOCC2)cs1)c1ccccc1,23%
CCOc1ccc(N2C(=O)Nc3ccccc3C2(O)C(=O)NCc2ccccc2)cc1 (centres undefined),8%
CCC(C)Sc1cccc(-c2nc3ccc(C)cn3c2NC2CCCCC2)c1 (centres undefined),4%
COc1ccccc1N(CC(=O)NCC1CCCO1)C(=O)CCC(=O)Nc1cc(C)on1 (centres undefined),-14%
COc1ccc(CCN2C(=O)N(c3ccc(C)cc3)C(=O)C2CC(=O)Nc2ccc(OC)cc2)cc1 (centres undefined),16%
CC1(C)C(c2ccccc2)=NC(c2ccc(Br)cc2)N1O (centres undefined),-9%
CCOC(=O)Cc1csc(NC(=O)CSc2nc3cccnc3n2CC)n1,2%
O=C(O)CCCNC(=O)c1cncc(O)c1,16%
COC(=O)c1ccc(OCC(=O)Nc2nn(-c3ccccc3)nc2C(N)=O)cc1,1%
COc1ccc(C2C=C(c3ccccc3)Nc3nc(NS(=O)(=O)c4ccc(Cl)cc4)nn32)cc1 (centres undefined),3%
Cn1c(SCC(=O)Nc2nccs2)nnc1-c1cccnc1,7%
CC(=O)Nc1cccc(NS(=O)(=O)Cc2ccc(Cl)cc2)c1,-1%
S=C(c1ccc(N2CCOCC2)cc1)N1CCOCC1,?
Cc1ccccc1C(=O)N(C)Cc1ccccc1,23%
COc1cc(C(=O)N/N=C(\C)Cc2ccccc2)cc(OC)c1OC,-22%
O=S(=O)(Nc1ccccn1)c1ccc(Oc2ccccc2)cc1,-14%
O=C(CN1C(=O)/C(=C/c2ccc(C(F)(F)F)cc2)Sc2ccccc21)NCCCN1CCOCC1,-12%
CC(=O)Nc1ccc(S(=O)(=O)Nc2nc(C)cc(-n3nc(C)cc3C)n2)cc1,-2%
CCOc1cc(S(=O)(=O)N2CCN(Cc3ccccc3)CC2)ccc1Br,0%
c1cnc(Oc2ccc(-c3nnco3)cc2)cn1,-5%
Cc1ccc(CNC(=O)/C=C/c2ccc(Br)o2)cc1,-5%
CN1CCN(C(=O)c2cc(Cl)ccc2NC(=O)c2ccc(Cl)cc2Cl)CC1,-1%
O=[N+]([O-])c1cc(S(=O)(=O)N2CCCCC2)ccc1NCc1cccc(Cl)c1,2%
O=C(NC(Cc1ccccc1)C(=O)NC(Cc1ccccc1)C(=O)O)c1ccccc1 (centres undefined),-2%
O=C(Nc1ccccc1)/C(=C/c1ccccc1)c1ccccc1,-13%
CN1CCN(S(=O)(=O)c2cccc(S(=O)(=O)c3ccc(Cl)c(Cl)c3)c2)CC1,8%
CCCN1CCN(CCNC(=O)Nc2cc(C)ccc2C)CC1,-17%
O[C@@H]([C@H](O)[C@H](O)CBr)[C@H](O)CBr,-1%&-9%
CCN1CCOC(CC(=O)Nc2cccc([N+](=O)[O-])c2)C1=O (centres undefined),-2%
C[C@@H]1CN([C@H](C)CO)C(=O)c2cc(NC(=O)Nc3cccc4ccccc34)ccc2O[C@H]1CN(C)Cc1ccc(C(F)(F)F)cc1,-2%
CCCc1c(C(=O)N/N=C(\C)CCc2ccccc2)nnn1-c1nonc1N,1%

# Ordered by count of non-hydrogen atoms (smallest number first): part of the list above
SMILES,VDR inhibitor
O[C@@H]([C@H](O)[C@H](O)CBr)[C@H](O)CBr,-1%&-9%
CSc1ncc(C(=O)Nc2ccc(C(C)=O)cc2)c(C)n1,41%[activator]
O=S(=O)(Nc1ccccn1)c1ccc(Oc2ccccc2)cc1,-14%
COc1cc(C(=O)N/N=C(\C)Cc2ccccc2)cc(OC)c1OC,-22%
Cc1cccc(-c2ncc(CN3CCN(CCC(C)C)C(CCO)C3)cn2)c1 (centres undefined),-1%
CCN(CC)S(=O)(=O)c1ccc(NC(=O)c2ccc(OCC3CCCO3)cc2)cc1 (centres undefined),9%
COc1ccc(CCN2C(=O)N(c3ccc(C)cc3)C(=O)C2CC(=O)Nc2ccc(OC)cc2)cc1 (centres undefined),16%
